GALR2 ag = GALR2 receptor agonists, primary screen, cell-based; activation, %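 (tested at 5 µM)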; 140,000 compounds, 0.48% hits; Galanin receptor type 2 (Homo sapiens), O43603; GALR2-expressing cells, agonist activation read-out;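 active means above mean plus 3 SD of all compounds, about 5% in these data, not always enough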;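 further: 0% = vehicle buffer wells and 100% = reference agonist at full effect; tested in CHO reporter cells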
INS promoter inh = inhibitors of insulin promoter-driven GFP, primary screen, imaging, TRM-6 cells (human fetal islet line), eGFP reporter, cell count | reporter expression induced with tamoxifen | inhibition, % at 2 µM | 130,000 compounds, 0.9% hits | AID 1273, 2008;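 active means inhibition above the mean plus 3 SD, with well images judged a real hit on visual review, cut at about 60% in these data, passing the limit was not always enough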
PKD1 inh = inhibitors of human PKD1 kinase, biochemical, fluorescence polarization; PKD1 kinase fluorescence polarization assay; inhibition, %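 (about 10 µM by stock and volumes)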; 200,000 compounds, 0.056% hits; AID 797, 2007;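 active means inhibition of 50% or more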;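 further: controls were vehicle for no effect and a reference inhibitor for full effect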
Target sequence (Q15139 whole entry, looked up): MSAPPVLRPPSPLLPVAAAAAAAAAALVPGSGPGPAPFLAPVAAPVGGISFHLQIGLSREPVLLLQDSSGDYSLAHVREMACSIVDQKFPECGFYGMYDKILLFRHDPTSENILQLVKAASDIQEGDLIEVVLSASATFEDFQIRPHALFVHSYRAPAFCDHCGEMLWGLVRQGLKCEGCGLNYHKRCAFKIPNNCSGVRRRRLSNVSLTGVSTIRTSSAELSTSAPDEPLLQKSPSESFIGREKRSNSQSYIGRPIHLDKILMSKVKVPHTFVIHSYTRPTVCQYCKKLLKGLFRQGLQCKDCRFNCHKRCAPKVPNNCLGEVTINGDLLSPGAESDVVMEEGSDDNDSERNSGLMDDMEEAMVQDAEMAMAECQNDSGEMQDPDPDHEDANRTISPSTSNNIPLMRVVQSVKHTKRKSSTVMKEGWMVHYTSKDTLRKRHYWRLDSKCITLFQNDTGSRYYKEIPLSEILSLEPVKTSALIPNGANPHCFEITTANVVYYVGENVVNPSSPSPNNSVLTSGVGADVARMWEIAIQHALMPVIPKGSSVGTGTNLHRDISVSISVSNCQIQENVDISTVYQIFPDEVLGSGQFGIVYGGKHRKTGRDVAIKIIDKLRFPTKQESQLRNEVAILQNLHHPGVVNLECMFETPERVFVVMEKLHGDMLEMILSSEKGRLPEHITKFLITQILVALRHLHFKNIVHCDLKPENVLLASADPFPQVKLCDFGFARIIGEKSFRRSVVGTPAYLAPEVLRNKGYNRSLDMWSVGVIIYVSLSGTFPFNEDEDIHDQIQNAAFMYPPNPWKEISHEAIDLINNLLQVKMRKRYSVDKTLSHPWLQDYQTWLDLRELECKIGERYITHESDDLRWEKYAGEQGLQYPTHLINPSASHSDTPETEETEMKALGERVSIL
RGS16-Gao HTS = modulators of RGS16 binding to Galphao, primary screen, biochemical, human proteins, multiplexed bead flow cytometry | AID 1441, 2008 | bead-based flow cytometry RGS16-Galphao binding, fluorescence; actives lie on both sides | 220,000 compounds, 0.38% hits | binding response (% of control), % at 10 µM;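 active means below 25% or above 175%, edge rows of some plates excepted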;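 further: Galphao activated by GDP with aluminum fluoride before binding; 100% = wells without compound and 0% = beads without RGS; some results beyond the cut were filed as inactive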
HSV augment = enhancers of HSV replication in host cells, fold increase, host cell viability; maximum fold increase; 220,000 compounds, 0.005% hits; AID 1956, 2009; HSV replication augmentation in cells;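 active means peak rise of 1.5-fold or more in the series; tested in PC3 cells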;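 further: first round at 10 µM; read as green reporter fluorescence; hits show the peak of a series up to 25 µM; 1 = signal of infected wells without compound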
INS promoter inh cell count = also measured in INS promoter inh; calls as there; normalized cell count, %; measured here: cell count, toxicity; reference of the scale not given here;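 cells exposed to compound for 48 h; stained nuclei by imaging scaled within each plate; lower means fewer cells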
HSV augment primary fold = further read-out of HSV augment, marked with its call; fold increase; compound at 10 µM; measured here: primary screen fold increase 10 uM; tested in PC3 cells;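 GFP signal in the first replicate; 1 = infected wells without compound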
An asterisk follows results filed as active; i = inactive; nt = not tested or not shown.

SMILES | GALR2 ag | INS promoter inh | INS promoter inh cell count | PKD1 inh | RGS16-Gao HTS | HSV augment | HSV augment primary fold
O=C(NC(=S)NCc1ccccc1)C1CCCCC1 | -2.4 | nt | nt | 3 | 95 | i | 0.89
COc1cc2c(cc1OC)C1Cc3ccc(OC)c(OC)c3CN1CC2 (stereo unspecified) | -0.4 | nt | nt | 4 | 99 | i | 1.1
Cc1ccc(CCNC(=O)C23C[C@H]4C[C@@H](C2)CC(n2nnc(C)n2)(C4)C3)cc1 | nt | 0 | 113 | 1 | 93 | i | 0.94
Cc1nnc(NC(=O)c2ccccc2Oc2ccccc2)s1 | nt | 58 | 118 | -9 | 103 | i | 0.97
Cc1cccc(C)c1NC(=S)Nc1ccccc1C(=O)NCc1ccco1 | -0.9 | 7 | 200 | -3 | 109 | i | 0.9
O=C(/C=C/c1ccc(Cl)cc1Cl)NCCN1CCOCC1 | -2.7 | nt | nt | 1 | 101 | i | 1.1
O=C(NCc1cccnc1)c1ccc(Cn2cc(C(F)(F)F)ccc2=O)cc1 | nt | nt | nt | 0 | 101 | i | 1
CC1(C)NC(=O)N(CC(=O)Nc2nc(-c3ccc(F)cc3)cs2)C1=O | -2.9 | 17 | 74 | 2 | 100 | nt | nt
Cc1ccc(NC(=O)[C@@H]2CCCN2S(=O)(=O)c2ccccc2C(F)(F)F)cc1S(=O)(=O)N1CCOCC1 | -1.7 | -12 | 90 | -11 | 111 | i | 0.76
COc1ccc(NC(=S)NC(NC(=O)c2ccccc2Cl)C(Cl)(Cl)Cl)c([N+](=O)[O-])c1 (stereo unspecified) | -1.6 | -13 | 98 | -7 | 99 | i | 0.87
CC(C)(C)c1ccc(C(=O)CC(=O)c2cc(Cl)ccc2O)cc1 | -3.9 | 3 | 96 | 0 | 110 | i | 0.84
Cc1ccc(NC(=O)NC2CCN(CC(=O)Nc3nccs3)CC2)cc1 | -1.8 | nt | nt | -4 | 100 | i | 0.69
Cc1cc(-c2nnc(SCc3cccnc3)o2)no1 | -1.4 | -64 | 122 | 5 | 104 | i | 0.92
Fc1ccc(Sc2ccccc2CNC2=NCCN2)cc1 | -1.9 | 0 | 84 | 13 | 97 | i | 0.89
COC(=O)C(CC(C)C)NC(=O)C(N)Cc1ccccc1 (stereo unspecified) | -3.0 | nt | nt | 1 | 105 | i | 0.91
O=C(COc1cccc(F)c1)N1c2ccccc2Sc2ccccc21 | -0.1 | 79* | 157* | -6 | 100 | i | 0.95
CCO[C@@H]1OC(C(=O)N2CCN(C)CC2)=C[C@H](c2coc3ccccc3c2=O)[C@H]1CCCO | nt | nt | nt | 1 | 100 | i | 0.96
Cc1cccc(N/C(N)=N/c2nc(C)cc(C)n2)c1 | -2.1 | 0 | 61 | 5 | 111 | i | 1.1
CN1CCC(OC(=O)COc2ccccc2)CC1 | -1.7 | 18 | 56 | -4 | 90 | i | 0.91
O=C(CSc1nnc(NC(=O)c2ccccc2Cl)s1)Nc1ccc2c(c1)oc1ccccc12 | -0.6 | -26 | 81 | -6 | 106 | i | 0.95
CCOC(=O)NC(Nc1cc(C)ccn1)(C(F)(F)F)C(F)(F)F | -0.5 | nt | nt | -2 | 117 | i | 0.99
CCCNC(=O)Nc1nccs1 | -0.6 | 11 | 79 | 7 | 99 | i | 0.81
COc1ccc(NC(=O)c2cccc(OC(F)F)c2)cc1Cl | -1.1 | -27 | 138 | -6 | 103 | i | 0.73
c1ccc(N2CCOCCOCCOCCOCCOCC2)cc1 | nt | nt | nt | -6 | 103 | i | 0.9
COc1ccc(-n2c(C)cc(C(=O)CCl)c2C)cc1 | nt | -19 | 18 | -2 | 101 | i | 1
CCCCNC(=O)COC(=O)c1ccc(Cl)c(S(=O)(=O)N2CCCC2)c1 | -1.1 | -9 | 124 | -6 | 103 | i | 0.92
O=C(c1ccco1)N1CCCN(Cc2cn[nH]c2-c2ccc(-c3ccccc3)cc2)CC1 | nt | nt | nt | 4 | 110 | i | 0.82
O=C(O)/C=C/C(=O)Nc1ccc(Oc2ncnc3cc(Cl)ccc23)nc1 | nt | nt | nt | nt | 107 | i | 1
COc1ccc(C(=S)N2CCCC2)cc1 | 0.3 | -14 | 82 | -9 | 102 | i | 0.72
COc1ccc(/C=N/NC(=O)CSc2ccccc2)cc1OC | -0.1 | 64* | 30* | -1 | 107 | i | 0.85

Shown as a markdown table: ten of the compounds above.
| canonical_smiles | GALR2 ag | INS promoter inh | INS promoter inh cell count | PKD1 inh | RGS16-Gao HTS | HSV augment | HSV augment primary fold |
| --- | --- | --- | --- | --- | --- | --- | --- |
| O=C(COc1cccc(F)c1)N1c2ccccc2Sc2ccccc21 | -0.1 | 79* | 157* | -6 | 100 | i | 0.95 |
| CCO[C@@H]1OC(C(=O)N2CCN(C)CC2)=C[C@H](c2coc3ccccc3c2=O)[C@H]1CCCO | nt | nt | nt | 1 | 100 | i | 0.96 |
| Cc1cccc(N/C(N)=N/c2nc(C)cc(C)n2)c1 | -2.1 | 0 | 61 | 5 | 111 | i | 1.1 |
| CN1CCC(OC(=O)COc2ccccc2)CC1 | -1.7 | 18 | 56 | -4 | 90 | i | 0.91 |
| O=C(CSc1nnc(NC(=O)c2ccccc2Cl)s1)Nc1ccc2c(c1)oc1ccccc12 | -0.6 | -26 | 81 | -6 | 106 | i | 0.95 |
| CCOC(=O)NC(Nc1cc(C)ccn1)(C(F)(F)F)C(F)(F)F | -0.5 | nt | nt | -2 | 117 | i | 0.99 |
| CCCNC(=O)Nc1nccs1 | -0.6 | 11 | 79 | 7 | 99 | i | 0.81 |
| COc1ccc(NC(=O)c2cccc(OC(F)F)c2)cc1Cl | -1.1 | -27 | 138 | -6 | 103 | i | 0.73 |
| c1ccc(N2CCOCCOCCOCCOCCOCC2)cc1 | nt | nt | nt | -6 | 103 | i | 0.9 |
| COc1ccc(-n2c(C)cc(C(=O)CCl)c2C)cc1 | nt | -19 | 18 | -2 | 101 | i | 1 |

Further records follow.
SMILES | GALR2 ag | INS promoter inh | INS promoter inh cell count | PKD1 inh | RGS16-Gao HTS | HSV augment | HSV augment primary fold
CC(C)(C)OC(=O)N1CCC(CNC(=O)Nc2ccccc2)CC1 | nt | nt | nt | nt | 99 | i | 0.84
Cc1ccc(C2=[N+]([O-])C(C)(C)CC2)cc1 | -0.1 | 3 | 145 | 2 | 89 | i | 1.1
CN(c1ccccc1C(=O)N1CCCC1)S(C)(=O)=O | -0.9 | 34 | 115 | 8 | 106 | i | 0.89
COc1ccc(C(=O)/C=C/Nc2ccc(S(=O)(=O)Nc3ncccn3)cc2)cc1 | 0.2 | nt | nt | -5 | 104 | i | 1
CCOC(=O)C1=C(C)NC(=O)NC1c1ccoc1 (stereo unspecified) | -1.7 | nt | nt | -5 | 99 | i | 0.83
CCOc1ccc(S(=O)(=O)n2c(C)nc3ccccc32)cc1 | -2.1 | nt | nt | -19 | 103 | i | 0.87
CN(CC(=O)Nc1ccccc1Cl)C(=O)CSc1ncc(C(F)(F)F)cc1Cl | -0.1 | -6 | 109 | 4 | 105 | i | 0.9
COc1cccc(Nc2nc(CC(C)=O)ns2)c1 | 0.9 | 0 | 157 | -3 | 99 | i | 1
Cc1nc([N+](=O)[O-])c(C(=O)O)n1C | nt | 36 | 138 | 3 | 109 | i | 0.95
CCc1cc(CNC(=O)CCc2nnc(Cc3cccc(C)c3)o2)on1 | nt | -6 | 125 | 3 | 73 | i | 1
O=C(O)CCC1=C2c3ccccc3CCN2C(=O)CC1 | -0.5 | -450 | 38 | -4 | 98 | i | 1.3
CCN(C(=O)COC(=O)c1ccc(Cl)c(N)c1)C1CCS(=O)(=O)C1 (stereo unspecified) | nt | -35 | 143 | 7 | 105 | i | 0.87
Cc1ccc(O)c(C(=O)CC(=O)c2cccc(F)c2)c1 | 2.1 | -152 | 22 | -12 | 101 | i | 0.84
CCn1c(CCCCc2n[nH]c(=S)n2CC)n[nH]c1=S | nt | nt | nt | 5 | 102 | i | 1
CC(C)C[C@H](NC(=O)C1(c2ccccc2)CCN(C(=O)[C@H]2CSCN2C(=O)OC(C)(C)C)CC1)C(=O)O | -1.9 | 7 | 109 | -3 | 105 | i | 1
Nc1ccc2c(c1)C(=O)Cc1ccccc1S2 | -0.8 | -15 | 112 | -2 | 92 | i | 1.1
COc1ccc(C(=O)CCC(=O)N2CCN(c3ccc(N4CCOCC4)nn3)CC2)cc1 | 0.0 | nt | nt | 0 | 105 | i | 0.92
CCCCOc1ccccc1C1C(C(=O)OC)=CN(CC)C=C1C(=O)OC | 16* | 53 | 77 | 3 | 102 | nt | nt
CC(C)(Oc1ccc(CCNC(=O)c2ccc(-c3ccc(Cl)cc3)o2)cc1)C(=O)O | nt | 36 | 127 | 11 | 95 | i | 0.88
O=C(Nc1nnc(-c2ccc3c(c2)OCCO3)o1)C1CCCCC1 | nt | nt | nt | 1 | 99 | i | 0.93
CCSc1nnc(Cc2cc(=O)[nH]c(=O)[nH]2)n1-c1ccc(Cl)cc1 | nt | nt | nt | nt | 81 | i | 0.87
C=C(C)C(=O)N1CC2(CC(c3cccc(NC(=O)/C(C)=C\C)c3)=NO2)C[C@H]1C(N)=O (stereo partly specified) | nt | nt | nt | nt | 106 | i | 0.89
COc1cccc(C2=NOC(C(=O)NCC3CCCO3)C2)c1 (stereo unspecified) | -1.6 | -55 | 70 | 4 | 100 | i | 0.78
COc1ccc(C2CC(c3ccc4ccccc4c3OC(C)=O)=NN2C(C)=O)cc1 (stereo unspecified) | nt | nt | nt | nt | 102 | i | 0.87
O=c1[nH]c(SCc2ccc(Cl)cc2)nc2c1CCC2 | -1.1 | 11 | 120 | 0 | 16 | nt | nt
O=C(NC1CCCCC1)c1ccc(NS(=O)(=O)c2cccc3cccnc23)cc1 | nt | -43 | 65 | -4 | 108 | i | 0.69
CCOCCCn1c(NN)nc2ccccc2c1=O | nt | nt | nt | -6 | 101 | i | 1.1
Cc1sc2ncnc(NCCCn3ccnc3)c2c1C | -2.0 | -3 | 98 | -6 | 101 | i | 1
Cc1ccc(CC(CC(=O)NCCc2ccc3c(c2)OCO3)C(=O)O)cc1 (stereo unspecified) | -2.3 | nt | nt | -2 | 56 | i | 0.95
CCOC(=S)SCC(=O)Nc1ncc(C)s1 | nt | nt | nt | nt | 100 | i | 0.87
COc1ccc(NCc2nnc(SCC(=O)Nc3ccccc3OC)o2)cc1 | -1.7 | nt | nt | 1 | 52 | i | 1
CCOC(=O)c1cnc(-n2nc(C)cc2C)nc1NNc1nc(C)cc(C)n1 | nt | nt | nt | nt | 107 | i | 0.89
CCCCN(C)CCNC(=O)CCNC(=O)Cn1ccc2ccccc2c1=O | nt | nt | nt | 9 | 102 | i | 0.92
CCNC(=S)NS(=O)(=O)c1ccc(Cl)cc1 | -1.5 | -27 | 114 | -10 | 85 | i | 1
COc1ccc(NC(=S)NCCc2ccc(Cl)cc2)c(OC)c1 | -1.3 | -30 | 91 | 6 | 98 | i | 0.93
COCCCNC(=O)c1ccc(Cn2c(=O)c3ccccc3n(Cc3cc(C)ccc3C)c2=O)cc1 | -2.8 | 43 | 134 | -7 | 98 | i | 0.92
O=C1NC2(CCCCCC2)Oc2ccccc21 | nt | nt | nt | -3 | 103 | i | 0.97
CCN(CC)C(=O)CSc1nnc(-c2ccccn2)n1-c1ccccc1OC | nt | nt | nt | nt | 101 | i | 0.93
C=CCNc1nc(Cl)nc(Nc2ccc(OCC)cc2)n1 | -2.2 | -7 | 67 | -8 | 111 | i | 0.91
CSCc1c(C(=O)Nc2ccc(N3CCOCC3)cc2)oc2ccccc12 | -4.3 | 4 | 130 | -5 | 97 | i | 0.8
Cc1nn(Cc2ccccc2)c(C)c1NC(=O)CSc1nc2c(c(C(F)(F)F)n1)CCc1ccccc1-2 | 1.8 | -34 | 110 | 1 | 100 | i | 0.9
CCOC(=O)CSc1nc(-c2ccccc2)nc2ccc(C)cc12 | nt | nt | nt | -4 | 110 | i | 0.96
COC(=O)N1CCN(CCc2ccccc2)CC1 | nt | nt | nt | -5 | 97 | i | 0.95
Cc1cccn2c(=O)c3cc(C#N)c(=O)n(CC4CCCO4)c3nc12 (stereo unspecified) | 4.3 | -3 | 82 | -5 | 112 | i | 0.76
Cc1cccc(C(=O)Nc2ccnc(-c3ccncc3)n2)c1 | nt | 27 | 114 | -3 | 96 | i | 0.86
CCc1ccc(OCC(=O)N/N=C(\C)c2ccc(-n3ccnc3)cc2)cc1 | -1.4 | 41 | 111 | -1 | 96 | i | 0.95
